Screening data: PubChem, National Center for Advancing Translational Sciences (NCATS)
2A Renilla – lowers the Renilla signal of an FMDV 2A StopGo reporter. HEK cells with a luciferase reporter of 2A StopGo recoding. Potency, µM (titrated, usually from 57.5 µM), for inactives: top-dose signal change, negative = less light. 120,000 tested, 0.32% active. AID 1745857; active means well fitted falling curve with a large enough effect; inconclusive means small, poorly fitted or top-dose-only effect; inactive means no such curve, though single readings can be large or run the other way; also: nearly all actives have a fitted effect of over 55% in size; overnight with compound
StopGo FLuc – FMDV 2A StopGo reporter, firefly signal | HEK cells with a luciferase reporter of 2A StopGo recoding | Potency, µM (highest dose often 57.5 µM), inactives show at the highest dose signal change, negative = less light | 120,000 tested, 0.23% active; active = well fitted falling curve with a large enough effect; inconclusive = small, poorly fitted or top-dose-only effect; inactive = no such curve, though single readings can be large or run the other way; also: nearly all actives have a fitted effect of over 60% in size; overnight with compound
* hit, by the source's call; [ ] = dose if it differs, or a comment. % is scaled to controls: 0 for no effect and ±100 for the full control effect; potency is read from the fitted curve at half-maximal effect.

How did COc1ccc(C2CC(=O)Nc3c2c(C)nn3-c2nncc(-c3ccccc3)n2)c(OC)c1OC (configuration not stated) do in these assays?
2A Renilla: 54%[activator]; StopGo FLuc: 43%

What do the screens show for `COc1cccc(C2CCCN2Cc2cc(=O)oc3cc(OC)ccc23)c1` (configuration not stated)?
2A Renilla: 26%; StopGo FLuc: 20%

How did CC(C)c1ccc(OCC(=O)NC(Cc2c[nH]c3ccccc23)C(=O)O)cc1 (configuration not stated) do in these assays?
2A Renilla: -10%; StopGo FLuc: -5%

Results for O=C(CSc1ccc(-c2ccccn2)nn1)NCCc1ccccc1 ?
2A Renilla: -4%; StopGo FLuc: 45%[activator]

How did Cc1nc(CN2CCN(CCOc3ccc(Cl)cc3)CC2)no1 do in these assays?
2A Renilla: -25%; StopGo FLuc: -13%

Results for Cc1ccc2nc(NC(=O)c3nc(SCc4ccccc4F)ncc3Cl)sc2c1 ?
2A Renilla: -1%; StopGo FLuc: -11%

What do the screens show for `CCN1C(C(=O)c2ccccc2)=C(OC(=O)C(C)C)c2ccccc2S1(=O)=O`?
2A Renilla: 17%; StopGo FLuc: -1%

Results for CN(C)CCNC(=O)c1ccc2c(c1)N(Cc1ccccc1)C(=O)c1ccccc1S2(=O)=O ?
2A Renilla: 31%[activator]; StopGo FLuc: 0%

What do the screens show for `COc1ccccc1Cn1cc(C(=O)c2ccc(C)cc2)c(=O)c2cc3c(cc21)OCCO3`?
2A Renilla: 154%[activator]; StopGo FLuc: 171%[activator]

How did CCOc1ccc(Nc2c(S(=O)(=O)c3ccccc3)cnc3ccc(CC)cc23)cc1 do in these assays?
2A Renilla: -3%; StopGo FLuc: 8%

What do the screens show for `COc1ccc(-c2cc(NC(=O)c3ccc(S(=O)(=O)NCC4CCCO4)cc3)ccc2OC)cc1` (configuration not stated)?
2A Renilla: 0%; StopGo FLuc: -8%

What do the screens show for `COc1ccc(CCNC(=O)CSc2nc3ccccc3nc2Cc2ccc(C)cc2)cc1OC`?
2A Renilla: -10%; StopGo FLuc: -24%

How did CCOc1ccccc1CNC(=O)c1ccc(Cn2c(=O)c3cccn3c3cccnc32)cc1 do in these assays?
2A Renilla: -3%; StopGo FLuc: -8%

How did CCc1cc(=O)oc2c(C)c(OCC(=O)c3ccc(OC)cc3)ccc12 do in these assays?
2A Renilla: -1%; StopGo FLuc: 6%

What do the screens show for `CCc1nc2nc3c(cn2n1)C(=O)CC(c1ccc(Cl)cc1)C3` (configuration not stated)?
2A Renilla: -10%; StopGo FLuc: -14%

Part of the list above in order of molecular weight, low to high:
Results for O=C(CSc1ccc(-c2ccccn2)nn1)NCCc1ccccc1 ?
2A Renilla: -4%; StopGo FLuc: 45%[activator]

How did CCc1cc(=O)oc2c(C)c(OCC(=O)c3ccc(OC)cc3)ccc12 do in these assays?
2A Renilla: -1%; StopGo FLuc: 6%

What do the screens show for `COc1ccc(CCNC(=O)CSc2nc3ccccc3nc2Cc2ccc(C)cc2)cc1OC`?
2A Renilla: -10%; StopGo FLuc: -24%

Other compounds follow.
Results for Cc1ccc(C(=O)N/C(=C/c2ccccc2)C(=O)NCCC(=O)O)cc1 ?
2A Renilla: -3%; StopGo FLuc: -1%

How did CC(C)NC(=O)CSc1nc2ccccc2c(=O)n1Cc1ccc(C(=O)NC(C)C)cc1 do in these assays?
2A Renilla: 1%; StopGo FLuc: 0%

Results for COc1ccc(-c2ocnc2C(=O)Nc2ccc(C(C)C)cc2)cc1OC ?
2A Renilla: 10%; StopGo FLuc: 89%[activator]

How did Cc1nc2cc(NC(C(=O)Nc3ccc(F)cc3)c3ccccc3)ccc2o1 (configuration not stated) do in these assays?
2A Renilla: 99%[activator]; StopGo FLuc: 72%[activator]

Results for CCN(CC(=O)NC)S(=O)(=O)N1CCCCC1 ?
2A Renilla: 2%; StopGo FLuc: 12%

Results for COc1ccc(CNC(=O)c2cc3cc(OC)ccc3oc2=O)cc1 ?
2A Renilla: 17%; StopGo FLuc: 2%

How did Cn1cccc1Cc1nnc(SCC(=O)Nc2ccc(F)cc2F)n1C do in these assays?
2A Renilla: 19%; StopGo FLuc: 1%

Results for CCN1CCN(C(c2ccc(C)cc2)c2c(O)cc(C)n(Cc3ccco3)c2=O)CC1 (configuration not stated) ?
2A Renilla: -14%; StopGo FLuc: -17%

How did O=C(Nc1ccc(Cl)cc1)C(NS(=O)(=O)c1cccs1)c1ccccc1 (configuration not stated) do in these assays?
2A Renilla: 52%[activator]; StopGo FLuc: -14%

How did CC(=O)Nc1cccc(NC(=O)Cc2csc(COc3cccc(C)c3)n2)c1 do in these assays?
2A Renilla: inconclusive; StopGo FLuc: -29%

What do the screens show for `COC(=O)c1sc(N2C(=O)c3oc4cc(C)c(C)cc4c(=O)c3C2c2ccccc2F)nc1C` (configuration not stated)?
2A Renilla: -11%; StopGo FLuc: -10%

Results for O=c1ccc2cc(S(=O)(=O)NCc3ccc(Cl)cc3)ccc2[nH]1 ?
2A Renilla: -4%; StopGo FLuc: -8%

How did CCC(C)NC(=O)CSc1nc(C2CC2)nc(C)c1C(C)=O (configuration not stated) do in these assays?
2A Renilla: 0%; StopGo FLuc: -4%

How did COc1ccc(SCC(=O)c2ccc(O)cc2O)cc1 do in these assays?
2A Renilla: 0%[1.06 µM]; StopGo FLuc: 0%

How did CCc1ccccc1NC(=O)C1CCCN(c2ncnc3onc(C)c23)C1 (configuration not stated) do in these assays?
2A Renilla: -9%; StopGo FLuc: -10%

What do the screens show for `Cc1cn[nH]c1`?
2A Renilla: 20%; StopGo FLuc: 0%[11.5 µM]

What do the screens show for `CC(=O)c1cnn(-c2cc(Nc3ccc(F)cc3)nc(C)n2)c1C`?
2A Renilla: -7%; StopGo FLuc: -1%

How did c1ccc(CNCCN2CCCC2)cc1 do in these assays?
2A Renilla: 0%; StopGo FLuc: 0%

How did Cn1ccc2cc(S(=O)(=O)N3CCC(C(=O)NCCN4CCCC4)CC3)ccc21 do in these assays?
2A Renilla: 16%; StopGo FLuc: 0%

How did CCCCCCCCCCOC(=O)Nc1ccc(C)cc1 do in these assays?
2A Renilla: -1%; StopGo FLuc: 7%

Results for O=C(COc1ccccc1)OCc1cc(=O)n2nc(C3CC3)sc2n1 ?
2A Renilla: 13%; StopGo FLuc: 22%

What do the screens show for `N#CCCC(=O)c1cccnc1`?
2A Renilla: 20%; StopGo FLuc: 20%

What do the screens show for `CC(C)c1cc(=O)oc2cc(OCC(=O)Nc3ccc(C(N)=O)cc3)ccc12`?
2A Renilla: 4%; StopGo FLuc: 1%

What do the screens show for `COc1ccc(NC(=O)CN2C(=O)C(c3ccc(C(C)(C)C)cc3)=NC2(C)C)cc1Cl`?
2A Renilla: 6%; StopGo FLuc: 0%

Results for Cc1cccc(NC(=S)NC2CCCC(C)C2C)c1 (configuration not stated) ?
2A Renilla: 85%[activator]; StopGo FLuc: inconclusive

Results for Cc1cccc(-c2nc(Nc3ccc(O)cc3)c3ccccc3n2)c1 ?
2A Renilla: 1%; StopGo FLuc: 13%

What do the screens show for `COc1ccc(C(=O)NCCn2cc(SC(C)c3ccccc3)c3ccccc32)cc1OC` (configuration not stated)?
2A Renilla: inconclusive; StopGo FLuc: inconclusive

How did CCN(c1ccccc1)S(=O)(=O)c1ccc(OC)c(NC(=O)c2n[nH]c(=O)c3ccccc23)c1 do in these assays?
2A Renilla: 19%; StopGo FLuc: 17%

How did CCC(C)NC(=O)c1ccc(N(C)C)cc1 (configuration not stated) do in these assays?
2A Renilla: 6%; StopGo FLuc: 98%[activator]

Results for COCc1[nH]nc2c1C1(C(=O)Nc3ccc(F)cc31)C(C#N)=C(N)O2 (configuration not stated) ?
2A Renilla: -18%; StopGo FLuc: -10%

How did O=C(NCc1ccccc1Cl)C(=O)Nc1cccc(O)c1 do in these assays?
2A Renilla: 52%[activator]; StopGo FLuc: 141%[activator]

Results for COc1cccc(CN(C)S(=O)(=O)c2cnn(C)c2)c1OC ?
2A Renilla: 156%[activator]; StopGo FLuc: 0%

What do the screens show for `CCCN(Cc1ccccc1)C(=O)Cc1n[nH]c(=O)c2ccccc12`?
2A Renilla: -8%; StopGo FLuc: -8%

What do the screens show for `COc1ccc(CN2CCN(c3ncnc4sc5c(c34)CC(C)CC5)CC2)cc1F` (configuration not stated)?
2A Renilla: -3%; StopGo FLuc: -3%

What do the screens show for `O=C(N/N=C/c1cccc(Oc2ccccc2)c1)c1cccs1`?
2A Renilla: 20%; StopGo FLuc: 0%

How did C[C@H](NC(=O)C(=O)Nc1cccc2[nH]ccc12)c1ccccc1 do in these assays?
2A Renilla: 0%; StopGo FLuc: 0%

What do the screens show for `CCOC(=O)c1c(C)n(S(=O)(=O)c2ccc(C)cc2C)c2ccc(NS(=O)(=O)c3ccc(C)cc3C)cc12`?
2A Renilla: 25%; StopGo FLuc: 0%

What do the screens show for `CCCOC(=O)C[N+](C)(C)CCOC1CC2CCC1(C)C2(C)C` (configuration not stated)?
2A Renilla: 8%; StopGo FLuc: 7%

Results for COc1ccc(-n2cc(C(=O)Nc3cc(F)ccc3F)c3ccccc3c2=O)cc1 ?
2A Renilla: -11%; StopGo FLuc: -12%

What do the screens show for `COC(=O)c1cccc(NC(=O)C2CCN(S(=O)(=O)Cc3ccccc3)CC2)c1C`?
2A Renilla: 7%; StopGo FLuc: 9%

How did Cn1c(=O)c2c(nc(SCCN3CCCCC3)n2Cc2ccccc2)n(C)c1=O do in these assays?
2A Renilla: 1%; StopGo FLuc: -1%

How did O=C(NCc1ccc(F)cc1)C(=O)NCC(c1ccc2c(c1)OCO2)N1CCOCC1 (configuration not stated) do in these assays?
2A Renilla: -14%; StopGo FLuc: inconclusive

Results for COc1cccc(COc2ccc3c(=O)c(-c4ccccc4OC)coc3c2)c1 ?
2A Renilla: 2%; StopGo FLuc: 173%[activator]

What do the screens show for `CCOC(=O)c1cc(-c2ccc(OC)cc2)n(CCC(=O)NCCc2ccccc2)c1C`?
2A Renilla: 46%[activator]; StopGo FLuc: 2%

What do the screens show for `Cc1nc(-n2nc(C)c(Cc3ccccc3Cl)c2C)sc1C(=O)Nc1ccccc1F`?
2A Renilla: -14%; StopGo FLuc: -14%

Next part (4 carried over from the part before).
How did O=C(NCc1ccc(F)cc1)C(=O)NCC(c1ccc2c(c1)OCO2)N1CCOCC1 (configuration not stated) do in these assays?
2A Renilla: -14%; StopGo FLuc: inconclusive

Results for COc1cccc(COc2ccc3c(=O)c(-c4ccccc4OC)coc3c2)c1 ?
2A Renilla: 2%; StopGo FLuc: 173%[activator]

What do the screens show for `CCOC(=O)c1cc(-c2ccc(OC)cc2)n(CCC(=O)NCCc2ccccc2)c1C`?
2A Renilla: 46%[activator]; StopGo FLuc: 2%

What do the screens show for `Cc1nc(-n2nc(C)c(Cc3ccccc3Cl)c2C)sc1C(=O)Nc1ccccc1F`?
2A Renilla: -14%; StopGo FLuc: -14%

How did CCOc1ccccc1NC(=O)Cn1c(=O)n(CCCC(=O)NCCc2ccc(C)cc2)c(=O)c2ccccc21 do in these assays?
2A Renilla: -17%; StopGo FLuc: inconclusive

How did CCOC(=O)Nc1ccc2c(CN3CCC(C(=O)OC)CC3)cc(=O)oc2c1 do in these assays?
2A Renilla: -9%; StopGo FLuc: -6%

How did CCCCOC(=O)c1ccc(NC(=O)Cc2coc3ccc(C(C)C)cc23)cc1 do in these assays?
2A Renilla: -6%; StopGo FLuc: -5%

How did CCOC(=O)c1ccc(NC(=O)Nc2cc3c(cc2N2CCCCC2)n(CC)c(=O)n3CC)cc1 do in these assays?
2A Renilla: -17%; StopGo FLuc: -46%

What do the screens show for `O=C(Nc1ccc(Br)cc1)N1CCN(c2nc3ccccc3n2Cc2ccccc2)CC1`?
2A Renilla: inconclusive; StopGo FLuc: inconclusive

Results for O=C(CCc1ccccc1)NC1CC(=O)N(c2cccc(F)c2)C1 (configuration not stated) ?
2A Renilla: -9%; StopGo FLuc: -13%

What do the screens show for `O=C(O)c1cccc(S(=O)(=O)Nc2cc(F)ccc2OCC(F)(F)F)c1`?
2A Renilla: -6%; StopGo FLuc: -4%

How did COc1cc(OC)c(NC(=O)Cn2c(SCc3ccccc3F)nc3cccnc32)cc1Cl do in these assays?
2A Renilla: -10%; StopGo FLuc: -6%

Results for CCOc1cccc2sc(NC(=O)c3ccc(S(=O)(=O)N4CCc5ccccc54)cc3)nc12 ?
2A Renilla: -16%; StopGo FLuc: -14%

What do the screens show for `N#CCCNC(Cc1ccccc1)C(=O)O` (configuration not stated)?
2A Renilla: -2%; StopGo FLuc: -10%

How did N#Cc1nc(-c2ccco2)oc1N1CCN(C(=O)CNC(c2ccccc2)c2ccccc2)CC1 do in these assays?
2A Renilla: 10µM*; StopGo FLuc: inconclusive

Results for CCOC(=O)c1ccc(NC(=O)C2CCN(S(=O)(=O)c3ccc(C)cc3)CC2)cc1 ?
2A Renilla: 9%; StopGo FLuc: -18%

How did Cc1ccc(F)c(S(=O)(=O)N(Cc2nccn2C)C2CC2)c1 do in these assays?
2A Renilla: -8%; StopGo FLuc: -6%

How did CC(C)(C)c1ccc(CS(=O)CCC(=O)Nc2ccccc2)cc1 (configuration not stated) do in these assays?
2A Renilla: -1%; StopGo FLuc: -9%

How did CCc1ccc(S(=O)(=O)c2cn(C)c3cc(N4CCOCC4)c(F)cc3c2=O)cc1 do in these assays?
2A Renilla: 0%; StopGo FLuc: 1%

How did CCCCCOc1ccc(Cn2c(=O)oc3ccccc32)cc1 do in these assays?
2A Renilla: -11%; StopGo FLuc: -14%

How did CCc1ccc(OC(=O)c2ccc(OC)cc2)c(Br)c1 do in these assays?
2A Renilla: 0%; StopGo FLuc: 86%[activator]

How did CN1C(=O)Cc2cc(S(=O)(=O)CCC(=O)N3CCN(c4ccccc4F)CC3)ccc21 do in these assays?
2A Renilla: -24%; StopGo FLuc: -14%

What do the screens show for `CCOc1ccc(NC(=O)Cc2csc(COc3cccc(C)c3)n2)cc1`?
2A Renilla: 14%; StopGo FLuc: 1%

This is a subset, so the mix of outcomes need not match the whole.
